NPYLR7 agonist: agonists of mosquito NPYLR7 receptor, primary screen, cell-based, Aedes aegypti, calcium fluorescence, mosquito biting behavior; HEK293T NPYLR7/Galpha15, GCaMP6s calcium fluorescence; activation, % at 10 µM; actives 0.15% (n = 270,000); in the data active = activation above about 40%;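 note: 0% = vehicle and 100% = reference agonist at the receptor; some compounds past the cut are filed as inactive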
NPYLR7 agonist max-min: also measured in NPYLR7 agonist; calls as there; activation, %; measured here: Max-Min RFU normalised activation; some inactives read as strong as hits;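 span of the calcium signal over five minutes; 0% = vehicle and 100% = native peptide agonist; compound fluorescence can raise it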
An asterisk follows results filed as active; & = joins results of further samples.

`COC(=O)C(C)OC(=O)CSc1ncnc2sccc12` (stereo not drawn) gave NPYLR7 agonist 6 and NPYLR7 agonist max-min 14.
O=C(NC(c1ccc(Cl)cc1)c1ccccn1)C1CCNCC1 (stereo not drawn) was read as NPYLR7 agonist 21 and NPYLR7 agonist max-min 10.
Screening O=c1c(-c2cccc(Cl)c2)[n+]([O-])c2ccccc2n1OCc1cccc(F)c1 returned NPYLR7 agonist -1 and NPYLR7 agonist max-min -3.
Screening CC(CCc1ccccc1)NC(=O)C(C)Sc1nnc(N2CCOCC2)n1Cc1ccccc1 (stereo not drawn) returned NPYLR7 agonist -3 and NPYLR7 agonist max-min -3.
Screening CC(C)N(Cc1nccn1C)C(=O)c1cn(Cc2ccccc2F)nn1 returned NPYLR7 agonist 1 and NPYLR7 agonist max-min -1.
For CC(C)COC(=NCCCN(C)C)NC(=O)c1cccc(C(F)(F)F)c1 the results were NPYLR7 agonist 19 and NPYLR7 agonist max-min 19.
For Nc1ccc(Oc2ccc3nc(-c4ccccn4)c(-c4ccccn4)nc3c2)cc1 the results were NPYLR7 agonist -5 and NPYLR7 agonist max-min -6.
`COc1ccc(/C=C2\SC(=S)N(CC(=O)O)C2=O)cc1Oc1ccc([N+](=O)[O-])cc1[N+](=O)[O-]` gave NPYLR7 agonist 10 and NPYLR7 agonist max-min 7.
Cc1ccsc1[C@@H]1CCN(C(=O)c2cccc(OCC(N)=O)c2)C[C@H]1O was read as NPYLR7 agonist 8 and NPYLR7 agonist max-min 7.
Screening CCOC(=O)c1ccc(Nc2nc3nonc3nc2NOC(C)=O)cc1 returned NPYLR7 agonist -6 and NPYLR7 agonist max-min -15.
Screening CC1CN(C)CC1NS(=O)(=O)/C=C/c1ccc(Cl)cc1 (stereo not drawn) returned NPYLR7 agonist -1 and NPYLR7 agonist max-min 12.
Screening Oc1cccc(-c2nc[nH]c2-c2ccccc2)c1 returned NPYLR7 agonist 9 and NPYLR7 agonist max-min 9.
O=C1NCCN2CCN(C(=O)CCSc3ccc4c(c3)OCCO4)CC12 (stereo not drawn) was read as NPYLR7 agonist 16 and NPYLR7 agonist max-min 16.
Cn1c(=O)c2[nH]c(NCc3ccco3)nc2n(C)c1=O was read as NPYLR7 agonist -2 and NPYLR7 agonist max-min -5.
`COc1cc(-c2ccnc(N3CCN(C(=O)C(F)(F)C(F)(F)C(F)(F)F)CC3)n2)cc(OC)c1OC` gave NPYLR7 agonist 11 and NPYLR7 agonist max-min 4.
For COc1ccc(CC2NC(=O)c3cnc(-c4cnccn4)nc32)cc1 (stereo not drawn) the results were NPYLR7 agonist 17 and NPYLR7 agonist max-min 8.
Screening Oc1[nH]c2ccc(Br)cc2c1N=Nc1ccc2ccccc2n1 returned NPYLR7 agonist 8 and NPYLR7 agonist max-min 4.
For Cc1ccc(F)c(CC(=O)N2CCOC(COCc3c(Cl)cccc3Cl)C2)c1F (stereo not drawn) the results were NPYLR7 agonist 3 and NPYLR7 agonist max-min 1.
Screening CC(C(=O)Nc1ccc(C(C)(C)C)cc1)N1CCN(C(C)(C)C(N)=O)CC1 (stereo not drawn) returned NPYLR7 agonist 2 and NPYLR7 agonist max-min 0.
Cc1cnn(-c2csc(C(N)=O)c2)c1 was read as NPYLR7 agonist 18 and NPYLR7 agonist max-min 6.

Compounds shown so far that contain an aryl methoxy group:
`COc1ccc(/C=C2\SC(=S)N(CC(=O)O)C2=O)cc1Oc1ccc([N+](=O)[O-])cc1[N+](=O)[O-]` gave NPYLR7 agonist 10 and NPYLR7 agonist max-min 7.
`COc1cc(-c2ccnc(N3CCN(C(=O)C(F)(F)C(F)(F)C(F)(F)F)CC3)n2)cc(OC)c1OC` gave NPYLR7 agonist 11 and NPYLR7 agonist max-min 4.
For COc1ccc(CC2NC(=O)c3cnc(-c4cnccn4)nc32)cc1 (stereo not drawn) the results were NPYLR7 agonist 17 and NPYLR7 agonist max-min 8.

Continuation:
`Cc1ccccc1C1c2ccsc2CCN1C(=O)CN(C(=O)c1cccc(Cl)c1)C1CCCCC1` (stereo not drawn) gave NPYLR7 agonist 14 and NPYLR7 agonist max-min 8.
CCCN(CCC)C(=O)c1cc2c(=O)n3ccccc3nc2n1C was read as NPYLR7 agonist 9 and NPYLR7 agonist max-min 11.
`COc1ccc2nc(-c3ccc(OC)c(NC(=O)C4CC4)c3)cn2n1` gave NPYLR7 agonist -9 and NPYLR7 agonist max-min -12.
For Cn1ccnc1COc1ccc(CN2CCOc3cccc(F)c32)cc1 the results were NPYLR7 agonist -1 and NPYLR7 agonist max-min -5.
Screening COc1ccc2sc(N(Cc3ccccc3)C(=O)C3=COCCO3)nc2c1 returned NPYLR7 agonist -3 and NPYLR7 agonist max-min -6.
`O=C(CC(c1ccccc1)c1ccccc1)NCc1ccc2ccccc2c1-c1ccccc1` gave NPYLR7 agonist -6 and NPYLR7 agonist max-min -13.
CC1(C)Cc2cccc(OCC(=O)NCCn3ncc4c(N5CCCCCC5)ncnc43)c2O1 was read as NPYLR7 agonist 8 and NPYLR7 agonist max-min 6.
Screening CC1Oc2ccccc2OC1C(=O)NCC(c1ccccc1)N(C)C (stereo not drawn) returned NPYLR7 agonist 1 and NPYLR7 agonist max-min 2.
O=C(NCc1ccccc1)C1CCN(c2ncnc3c2sc2ncccc23)CC1 was read as NPYLR7 agonist 1 and NPYLR7 agonist max-min -3.
Screening COc1ccc(CC(=O)Nc2cc(C)nn2-c2nc(C)cc(=O)[nH]2)cc1OC returned NPYLR7 agonist 3 and NPYLR7 agonist max-min -3.

Some of these compounds in order of molar mass, low to high.
CCCN(CCC)C(=O)c1cc2c(=O)n3ccccc3nc2n1C was read as NPYLR7 agonist 9 and NPYLR7 agonist max-min 11.
`COc1ccc2nc(-c3ccc(OC)c(NC(=O)C4CC4)c3)cn2n1` gave NPYLR7 agonist -9 and NPYLR7 agonist max-min -12.
Screening CC1Oc2ccccc2OC1C(=O)NCC(c1ccccc1)N(C)C (stereo not drawn) returned NPYLR7 agonist 1 and NPYLR7 agonist max-min 2.

(further entries)
`Fc1ccc(Oc2cc(N3CCOCC3)ncn2)cc1F` gave NPYLR7 agonist 9 and NPYLR7 agonist max-min 7.
CCOC(=O)c1cc(-c2cccc(NC(=O)Cc3cccc(OC)c3)c2)n(-c2cccc(F)c2)n1 was read as NPYLR7 agonist -2 and NPYLR7 agonist max-min -4.
Screening COc1ccc(CN2C(=O)N(CC(C)C)C3(CCN(C/C=C/c4ccco4)CC3)C2=O)cc1 returned NPYLR7 agonist 15 and NPYLR7 agonist max-min 2.
Cc1nc2ccccn2c(=O)c1NC(=O)C1CCCC1 was read as NPYLR7 agonist -2 and NPYLR7 agonist max-min -2.
`O=C(NCC(NC(=O)C1CC=CC1)C1CCCCC1)C1CC=CC1` (stereo not drawn) gave NPYLR7 agonist -8 and NPYLR7 agonist max-min -11.
Screening COc1cc(/C=N\n2c(C)nnc2-n2nc(C)cc2C)cc(Br)c1O returned NPYLR7 agonist -3 and NPYLR7 agonist max-min -3.
For COCc1nc(-c2ccc(CN3CCN(C(=O)C4=NNC(=O)CC4)CC3)cc2)no1 the results were NPYLR7 agonist -4 and NPYLR7 agonist max-min -8.
For COc1ccc2oc(=O)n(C3CCN(C(=O)C(OC(C)=O)c4ccccc4)CC3)c2c1 (stereo not drawn) the results were NPYLR7 agonist 23 and NPYLR7 agonist max-min 17.
`CC(C)c1cc(C(=O)NCc2cccnc2N2CCN(C)CC2)nc2ncnn12` gave NPYLR7 agonist -2 and NPYLR7 agonist max-min -4.
For CCCn1c(N)cc(=O)n(C)c1=O the results were NPYLR7 agonist -5 and NPYLR7 agonist max-min -3.
O=c1[nH]c(O)c(C=NCC2CCCCC2)c(=O)[nH]1 was read as NPYLR7 agonist 15 and NPYLR7 agonist max-min 10.
For O=[N+]([O-])c1ccc(C=NNC(=S)Nc2cccnc2)o1 the results were NPYLR7 agonist 3 and NPYLR7 agonist max-min 2.
`C[C@H]1COC2=C1C(=O)C(=O)c1c2ccc2c1CCCC2(C)C` gave NPYLR7 agonist -10 and NPYLR7 agonist max-min -11.
For COc1ccc(-c2cc(Nc3cccc(OCc4ccccc4)c3)ncn2)cc1 the results were NPYLR7 agonist 1 and NPYLR7 agonist max-min -2.
Screening COCCN1CC(O)CN(S(=O)(=O)c2ccc(C)cc2)CC1=O (stereo not drawn) returned NPYLR7 agonist 18 and NPYLR7 agonist max-min 22.
Screening CCNC(=O)NCC1CCN(C2Cc3ccccc3C2)C1 (stereo not drawn) returned NPYLR7 agonist 4 and NPYLR7 agonist max-min 1.
CCOC(=O)C1=C(CSc2nnc(SCC)s2)NC(=O)NC1CC (stereo not drawn) was read as NPYLR7 agonist 0 and NPYLR7 agonist max-min 8.
For Cc1cccc(Nc2cc3[nH]c(-c4ccccc4)cc3cn2)c1 the results were NPYLR7 agonist 11 and NPYLR7 agonist max-min 23.
`Cc1ccn(-c2ccc(Nc3ccc(NC(=O)C4CCCC4)cc3)nn2)n1` gave NPYLR7 agonist -5 and NPYLR7 agonist max-min -10.
For COc1cc(F)c(-c2nccn2CCC2CCCCO2)cc1OC (stereo not drawn) the results were NPYLR7 agonist 2 and NPYLR7 agonist max-min -2.
Screening C=CCN(CC(=O)N1CCc2sccc2C1c1ccc(F)cc1)C(=O)c1ccc(C(F)(F)F)cc1 (stereo not drawn) returned NPYLR7 agonist 20 and NPYLR7 agonist max-min 18.
`CCOc1ccc(OCC(=O)N2CCN(c3ncnc4c3nnn4-c3ccc(F)cc3)CC2)cc1` gave NPYLR7 agonist 1 and NPYLR7 agonist max-min -10.
Cn1cc(CCC(=O)O[C@@H]2CCC[C@H]2n2cccn2)cn1 was read as NPYLR7 agonist 3 and NPYLR7 agonist max-min 3.
Screening CSc1nn(-c2ccccc2)c(N)c1C#N returned NPYLR7 agonist 4 and NPYLR7 agonist max-min 4.
Oc1c(C(c2ccccn2)N2CCCC2)ccc2cccnc12 (stereo not drawn) was read as NPYLR7 agonist -14 and NPYLR7 agonist max-min -18.
CCC(C)(C)C(=O)O[C@H]1C[C@@H](C)C=C2C=C[C@H](C)[C@H](CC[C@@H]3C[C@@H](O)CC(=O)O3)[C@H]21 was read as NPYLR7 agonist -2&-9&-1 and NPYLR7 agonist max-min -7&-19&-8.
For COCCCN(C)S(=O)(=O)c1ccc(C#N)cc1C the results were NPYLR7 agonist 5 and NPYLR7 agonist max-min 2.
CC(C)N(CC(=O)N(Cc1ccc2c(c1)OCO2)Cc1cccs1)C(=O)c1ccc(C(F)(F)F)cc1 was read as NPYLR7 agonist -7 and NPYLR7 agonist max-min -11.
`O=C(Cc1c(Cl)cccc1Cl)N1CCCC(O)(CO)C1` (stereo not drawn) gave NPYLR7 agonist 4 and NPYLR7 agonist max-min 8.
For CC(=O)c1ccc(N2CCc3nnc(CCc4ccccc4)n3CC2)nc1 the results were NPYLR7 agonist 18 and NPYLR7 agonist max-min 8.
`Cc1ccc(OS(=O)NCCSc2ccccc2)cc1` (stereo not drawn) gave NPYLR7 agonist -6 and NPYLR7 agonist max-min -9.
O=S(=O)(c1ccc(OC(F)(F)F)cc1)N1CCC(n2nc(-c3ccccc3)cc2-c2ccccc2)CC1 was read as NPYLR7 agonist 9 and NPYLR7 agonist max-min 5.
COc1ccc(C(=O)Nc2c(N)nc(SCc3cccc([N+](=O)[O-])c3)[nH]c2=O)cc1 was read as NPYLR7 agonist -9 and NPYLR7 agonist max-min -1.
For CC1CCN(C(=O)NCc2cccc(C(=O)NCCN(C)C)c2)CC1 the results were NPYLR7 agonist 13 and NPYLR7 agonist max-min 9.
CC1(C(=O)NCC(F)(F)F)CCN1C(=O)CCc1ccccc1 (stereo not drawn) was read as NPYLR7 agonist 8 and NPYLR7 agonist max-min 5.
`O=C(c1cc2c(F)cccc2s1)N(CC1CCCO1)C1CCS(=O)(=O)C1` (stereo not drawn) gave NPYLR7 agonist -4 and NPYLR7 agonist max-min 2.
COc1ccc(Nc2nc(C)c3c(n2)CC(C)CC3=O)cc1 (stereo not drawn) was read as NPYLR7 agonist 0 and NPYLR7 agonist max-min 44.
Screening COc1ccc(CCNC(=O)CCc2ccc(-c3ccc(Cl)cc3)n2-c2ccc(OC)cc2)cc1 returned NPYLR7 agonist -3 and NPYLR7 agonist max-min -6.
`O=C1CN(C(c2ccccc2)(c2ccccc2)c2ccccc2)CO1` gave NPYLR7 agonist 0 and NPYLR7 agonist max-min -1.
Screening CCc1[nH]c2c(CNC(=O)C3CCN(CCOC)CC3)cc(C)cc2c1C returned NPYLR7 agonist -1 and NPYLR7 agonist max-min -1.
Screening Cc1cccc(OCC(=O)NC(c2ccccc2)C2CC2)c1 (stereo not drawn) returned NPYLR7 agonist -9 and NPYLR7 agonist max-min -13.
COc1cccc(C(=O)N2CCN(C(=O)c3ccc(F)cc3)CC2)c1 was read as NPYLR7 agonist 4 and NPYLR7 agonist max-min 15.
`COc1ccc(C(=O)NCCCN=C2NS(=O)(=O)c3ccccc32)c(OC)c1` gave NPYLR7 agonist 5 and NPYLR7 agonist max-min 7.
`O=C(c1cccc(CC2CCNCC2)c1)N1CCCC1c1ccccn1` (stereo not drawn) gave NPYLR7 agonist 12 and NPYLR7 agonist max-min 9.
`CCOC(=O)C1(O)CCN(c2cnc3cc(F)c(F)cc3n2)CC1` gave NPYLR7 agonist 2 and NPYLR7 agonist max-min 1.
`FC(F)(F)c1cccc(N2CCN(c3nncc(-c4ccccc4)n3)CC2)c1` gave NPYLR7 agonist 16&3 and NPYLR7 agonist max-min 2&3.
COc1cccc(-c2nn(CC(=O)N3CCc4ccccc43)c(=O)c3nc(C)sc23)c1 was read as NPYLR7 agonist 2 and NPYLR7 agonist max-min -1.

4 compounds drawn at random from those above:
COc1cccc(-c2nn(CC(=O)N3CCc4ccccc43)c(=O)c3nc(C)sc23)c1 was read as NPYLR7 agonist 2 and NPYLR7 agonist max-min -1.
`FC(F)(F)c1cccc(N2CCN(c3nncc(-c4ccccc4)n3)CC2)c1` gave NPYLR7 agonist 16&3 and NPYLR7 agonist max-min 2&3.
`COc1ccc(C(=O)NCCCN=C2NS(=O)(=O)c3ccccc32)c(OC)c1` gave NPYLR7 agonist 5 and NPYLR7 agonist max-min 7.
`CCOC(=O)C1(O)CCN(c2cnc3cc(F)c(F)cc3n2)CC1` gave NPYLR7 agonist 2 and NPYLR7 agonist max-min 1.

Screens as filed in PubChem BioAssay.

The list is partial. The share of hits here may be higher or lower than overall.
